Screens as filed in PubChem BioAssay.
MT1-MMP reporter = MT1-MMP gene expression reporter suppression – cell-based, luciferase reporter, luminescence (AID 618); calls from a first round at 10 µM; hits with a dose series show EC50 in µM; hit rate 0.62% among 87,000; MT1-MMP promoter luciferase reporter cells, luminescence;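 active = over half of the reporter light lost at 10 µM or EC50 under 50 µM; inactive = the rest and hits that failed the dose series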;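 also: actives suppress MT1-MMP promoter-driven transcription so potencies describe inhibitors; HT1080 fibrosarcoma cells; overnight exposure; toxic or luciferase-blocking compounds were not removed from the actives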
WNV NS2B-NS3 inh = inhibitors of West Nile virus NS2B-NS3 protease. hit rate 0.18% among 65,000. z-score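 (tested at a level between 10 and 100 µM)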. WNV NS2B-NS3 protease, fluorogenic substrate Ex360/Em465; hits give low values. P06935;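 active = z-score at -3 or under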;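 also: score is relative to mean and spread of the compound wells of a plate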
Target sequence (P06935 1371-1501 limits assumed): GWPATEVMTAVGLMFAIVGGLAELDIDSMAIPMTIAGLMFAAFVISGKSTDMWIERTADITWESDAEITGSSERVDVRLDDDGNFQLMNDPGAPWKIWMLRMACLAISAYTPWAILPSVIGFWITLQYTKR
Target sequence (P06935 1502-1679 limits assumed): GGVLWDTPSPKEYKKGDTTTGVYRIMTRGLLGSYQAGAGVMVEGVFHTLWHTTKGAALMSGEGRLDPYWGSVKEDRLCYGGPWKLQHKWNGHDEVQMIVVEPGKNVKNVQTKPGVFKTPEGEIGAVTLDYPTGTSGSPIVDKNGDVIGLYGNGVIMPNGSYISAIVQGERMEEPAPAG
Hsc70 = Hsc70 inhibitors, probe displacement, primary screen, biochemical, fluorescence polarization (AID 568). Hsc70 fluorescence polarization, probe displacement; higher % means a stronger effect; strong numbers were not always called active. displacement, % at 20 µM; hits with a dose series show IC50 in µM. 83,000 tested, under 10 active;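 active = displacement above 50% without optical interference and an IC50 on retest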;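 also: ATPase domain with a fluorescein-tagged ATP probe; 0% = vehicle and 100% = excess ADP; read after one hour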
* hit, by the source's call; i = inactive; x = not tested or not shown. These rows are one share of the data; count on the stated rates, not on these rows.

Every second line gives: WNV NS2B-NS3 inh	MT1-MMP reporter	Hsc70
> CS(=O)(=O)Nc1ccc(C(=O)NCC2CCCO2)cc1 (stereo unspecified)
  0.16	i	-3.1%
> O=C(CSc1nc(-c2ccncc2)nn1CC(=O)N1CCCCC1)NC1CCCC1
  -0.23	i	2.6%
> CCOC(=O)N1CCC(NC(=O)C2=C(C)C(=O)OC23CCC(C)CC3)CC1 (stereo unspecified)
  0.58	i	-4.6%
> CCOc1ccccc1N(CC(=O)O)S(=O)(=O)c1ccccc1
  -0.77	i	0.7%
> Cn1c(CNC(=O)C(C)(C)C)nc2ccccc21
  0.5	i	-4.8%
> O=C(CN1CCOCC1)Nc1c2c(nc3ccccc13)N(Cc1ccccc1)CC2
  -0.58	i	-10%
> CCOc1nc(NCCN2CCOCC2)nc(NC(C)C)n1
  x	i	3.1%
> COc1ccc(CNC(=O)COC(=O)c2c(-c3c(F)cccc3Cl)noc2C)cc1OC
  x	i	-1.8%
> COc1cccc(OC)c1NC(=O)CN1CCC(NC(=O)c2cccc(F)c2)CC1
  x	i	-0.5%
> CCCCOc1ccc(C(=O)Nc2ccc(N3CCN(C(=O)C(C)C)CC3)cc2)cc1
  1.2	i	-1.3%
> O=C(NCCCn1ccnc1)c1cccc(S(=O)(=O)N2CCCCCC2)c1
  x	i	0.7%
> CC(=O)NCCn1c(SCC(=O)NCC2CCCO2)nc2ccccc2c1=O (stereo unspecified)
  -0.05	i	0.8%
> COc1ccc(S(=O)(=O)N2CCC(C(=O)NCC3CCCO3)CC2)cc1 (stereo unspecified)
  x	i	-1.2%
> Cc1cccc(OCC(=O)N2CCC(c3ccccc3)C2)c1 (stereo unspecified)
  0.45	i	-0.9%
> CCOC(=O)c1cc2c(=O)n3cccc(C)c3nc2n(CCc2ccccc2)c1=N
  2.1	i	-2.0%
> Cc1ccc(C(CC(=O)O)Nc2nc(N3CCOCC3)nc(N3CCOCC3)n2)cc1 (stereo unspecified)
  x	i	0.5%
> COC(=O)CCCCCC(CCC(=O)OC)NC(C)=O (stereo unspecified)
  -1.3	i	-1.7%
> Cc1ccc(NC(=O)CCn2cnc3cc(C)c(C)cc32)cc1
  x	i	0.1%
> COc1cc(NC(C)C(=O)N2CC(C)OC(C)C2)cc(OC)c1 (stereo unspecified)
  x	i	-1.1%
> CCOC(=O)C1=C(C)NC(=O)NC1c1ccc(OCC(=O)Nc2ccccc2)c(OC)c1 (stereo unspecified)
  -0.23	i	-1.0%

The last 4 entries of the section above lead into the next.
Every second line gives: WNV NS2B-NS3 inh	MT1-MMP reporter	Hsc70
> COC(=O)CCCCCC(CCC(=O)OC)NC(C)=O (stereo unspecified)
  -1.3	i	-1.7%
> Cc1ccc(NC(=O)CCn2cnc3cc(C)c(C)cc32)cc1
  x	i	0.1%
> COc1cc(NC(C)C(=O)N2CC(C)OC(C)C2)cc(OC)c1 (stereo unspecified)
  x	i	-1.1%
> CCOC(=O)C1=C(C)NC(=O)NC1c1ccc(OCC(=O)Nc2ccccc2)c(OC)c1 (stereo unspecified)
  -0.23	i	-1.0%
> O=C(NCCN1CCOCC1)c1cc2cc(Cl)cc(Cl)c2oc1=O
  x	i	-3.4%
> COc1ccccc1C(=O)NC(C)c1ccccc1 (stereo unspecified)
  x	i	1.7%
> Cc1cc(NC(=O)CSc2nnc3c(C)cc4cc(C)c(C)cc4n23)no1
  0.14	i	1.0%
> O=C(O)c1c[nH]ccc1=O
  -1.4	i	-3.0%
> Cn1nnnc1SCC(=O)Nc1ccc(Cl)cc1Cl
  1.3	i	-1.1%
> CC(NC(=O)c1ccc2c(c1)OCCO2)C(=O)O (stereo unspecified)
  0.22	i	-7.9%
> COCCn1c(=S)[nH]c2cc(OC)c(OC)cc2c1=O
  0.53	i	3.8%
> CCOC(=O)CSc1nc2c(sc3ccccc32)c(=O)n1CCCN1CCOCC1
  1.6	i	2.4%
> Cc1nc(N2CCN(C(=O)COc3ccccc3)CC2)c2c(C)c(C)sc2n1
  x	i	8.8%
> O=C1c2ccccc2CCC12N=NCC2c1ccc(Cl)cc1 (stereo unspecified)
  x	i	-4.2%
> Cc1cc(OC(=O)c2cccs2)ccc1C(C)C
  x	i	4.1%
> CCOc1ccc(S(=O)(=O)NCC2CCCO2)c2cccnc12 (stereo unspecified)
  0.61	i	-0.9%
> CCCCOC(=O)c1[nH]c(C)c(C(=O)OC)c1C
  1.6	i	-3.5%
> Cn1c(CCN2CCCCC2)nc2cc(NS(=O)(=O)c3ccc(F)cc3)ccc21
  -1.5	i	2.7%
> CC(C)=CC(=O)Nc1ccccc1Br
  0.72	i	0.0%
> COc1ccc2c(c1)c1c(n2C(C)=O)C(OC(C)=O)=NCC1
  0.15	i	7.5%
> Cc1nnc(SCC(=O)Nc2ncc3c(n2)CCCC3=O)s1
  0.74	i	-4.1%
> O=C(O)c1ccc(N2C(=O)CC(Cc3ccccc3)C2=O)cc1 (stereo unspecified)
  x	i	0.2%
> Cc1ncsc1CCSc1nc2ccccc2c(=O)n1C
  0.19	i	-4.8%
> CC(C)c1ccc(NC(=O)C(c2ccccc2)N2CCN(C=O)CC2)cc1 (stereo unspecified)
  -0.65	i	-6.8%

The closing 3 entries of the part above lead into the next:
Every second line gives: WNV NS2B-NS3 inh	MT1-MMP reporter	Hsc70
> O=C(O)c1ccc(N2C(=O)CC(Cc3ccccc3)C2=O)cc1 (stereo unspecified)
  x	i	0.2%
> Cc1ncsc1CCSc1nc2ccccc2c(=O)n1C
  0.19	i	-4.8%
> CC(C)c1ccc(NC(=O)C(c2ccccc2)N2CCN(C=O)CC2)cc1 (stereo unspecified)
  -0.65	i	-6.8%
> O=C(Cn1nc(-c2ccc3c(c2)OCCO3)ccc1=O)Nc1ccc(N2CCOCC2)cc1
  -0.37	i	-16%
> COc1ccc(S(=O)(=O)N2CCN(c3nc4ccccc4nc3-n3nc(C)cc3C)CC2)cc1
  0.67	i	0.2%
> C=CCN1C(=O)[C@]2(c3ccccc31)C1CCCC=C1C(C#N)=C(N)C2(C#N)C#N (stereo partly specified)
  x	i	-0.5%
> Cc1nc2c(-c3ccccc3)c(C)nn2c(C)c1CCC(=O)O
  -0.59	i	5.4%
> O=c1cc(CSc2nnc(-c3cccs3)n2Cc2ccccc2)nc2sc3ccccc3n12
  -1.6	i	-4.7%
> Cc1ccccc1-n1c(=O)cc(N2CCC3(CC2)OCCO3)[nH]c1=O
  0.11	i	-2.4%
> COC(=O)[C@H](C)NC(=O)Nc1cccc(C)c1
  x	i	2.5%
> CCOC(=O)c1ccccc1NC(=O)Cn1c(-c2nonc2N)nc2ccccc21
  -0.49	i	-14%
> O=C(CN1C(=O)c2ccccc2S1(=O)=O)Nc1ccc(S(=O)(=O)N2CCCCCC2)cc1
  -0.36	i	-8.5%
> CCN(CC)S(=O)(=O)c1ccc(NC(=O)CN(c2ccc(OC)cc2OC)S(C)(=O)=O)cc1
  -0.48	i	-3.2%
> Cc1ccccc1NS(=O)(=O)c1cccc(-c2nnc(-c3ccccc3)o2)c1
  -0.93	i	9.6%
> CC1CCN(CCC(=O)Nc2ccc(Br)cc2)CC1
  -0.12	i	0.7%
> O=C(Cc1cccs1)N1CCN(c2ccc(F)cc2)CC1
  x	i	0.8%
> O=C(NCc1ccco1)c1cc(-c2cccnc2)nc2ccc(Cl)cc12
  0.15	i	-2.4%
> COc1ccc(Cn2nnnc2C(c2ccc(C)cc2)N2CCN(C3CCCC3)CC2)cc1 (stereo unspecified)
  -0.38	i	-0.9%
> CCCCN(C)Cc1c(C)[nH]c2ccc(OCC)cc2c1=O
  1.2	i	-0.4%
> COc1ccccc1N1CCN(C(CNS(=O)(=O)c2cc(F)ccc2F)c2cccnc2)CC1 (stereo unspecified)
  -0.61	i	-0.7%
> O=c1c2ccccc2nc(N/N=C/c2ccccc2)n1O
  x	i	-1.5%
> COc1ccccc1N1CCN(Cc2nnnn2CCc2ccccc2)CC1
  -0.42	i	-1.8%
> Cc1ccc(N2C(=O)NC3(CCCCC3)C2=O)cc1
  -0.01	i	-2.3%
> OCCN1CCN(Cc2cccc(Oc3ccc(Cl)cc3)c2)CC1
  1.6	i	-7.3%
> Cc1oc2c(CN(C)C)c(O)ccc2c(=O)c1-c1ccc2ccccc2n1
  -3.1*	i	3.4%
> Cc1cc(=O)[nH]c(N=N/C(=N/Nc2ccc(O)cc2)c2ccccc2)n1
  x	i	-0.4%
> CCN(CC(=O)NCCc1ccc(S(N)(=O)=O)cc1)Cc1nc2ccccc2c(=O)[nH]1
  -1.3	i	4.4%
> CCC(C)NS(=O)(=O)c1ccc(OCC(=O)Nc2ccc(F)cc2F)cc1 (stereo unspecified)
  x	i	1.2%
> O=C(c1ccccc1)c1cc(F)c(N2CCOCC2)cc1Cl
  0.25	i	-3.6%
> CC(C)CC(C(=O)NCc1ccccn1)N1C(=O)c2ccccc2C1=O (stereo unspecified)
  -1.4	i	-2.1%
> COc1cc(OC)c(C2CC(=O)N3CN(c4ccccc4)CSC3=C2C#N)cc1OC (stereo unspecified)
  1.3	i	6.6%
> COc1ccccc1-c1nc(SCc2ccccn2)n[nH]1
  0.27	i	3.4%
> Nc1nonc1-c1noc(CCCOc2ccc(Cl)cc2Cl)n1
  -1.2	i	-1.2%
> COc1ccccc1N1CCN(S(=O)(=O)c2cccs2)CC1
  x	i	1.6%
> COc1cccc(C(C(=O)NC2CCCC2)N(Cc2ccco2)C(=O)c2ccco2)c1OC (stereo unspecified)
  x	i	8.4%
> Cc1ccc(-n2c(C)nnc2SCC(=O)Nc2ccccc2)cc1
  x	i	2.3%
> CN1c2cccc3cccc(c23)N(C)C1(C)C
  2.1	i	-6.1%
> Cc1ccc(Cl)cc1NC(=O)CC1NCCNC1=O (stereo unspecified)
  x	i	4.4%
> CS(=O)(=O)NCCOc1ccc(S(=O)(=O)N2CCCc3ccccc32)cc1
  -1.2	i	-1.5%
> Cc1cc(=O)[nH]c(S/C=C/c2ccccc2)n1
  -0.34	i	1.2%
> CCCNC(=O)C(CC)NS(=O)(=O)c1ccc(OC)cc1 (stereo unspecified)
  0.56	i	0.5%
> CC(=O)Nc1ccc(S(=O)(=O)N2CCSC2c2ccc(Cl)cc2)cc1 (stereo unspecified)
  -0.03	i	-3.1%
> CC(C)CCN1CC(C(=O)NCc2ccc(F)cc2)CC1=O (stereo unspecified)
  -4*	i	-4.0%
> CCOc1ccccc1C1C(C(=O)OC)=C(N)OC2=C1C(=O)CCC2 (stereo unspecified)
  0.05	i	-3.2%
> Cc1ccc(CN(c2ccc(C(=O)NCc3ccccn3)cc2)S(C)(=O)=O)cc1
  x	i	2.2%
> O=C(O)c1cc2cc(Cl)cc(Cl)c2oc1=O
  -0.93	i	0.7%
> O=C(c1ccc2ccccc2c1)N1CCN(c2ccc(C(F)(F)F)cn2)CC1
  x	i	3.6%
> COc1cccc2cc(C(=O)Nc3cccnc3N3CCOCC3)c(=O)oc12
  -0.15	i	-0.5%
> Cc1nnc(C)c2c(C)n(C(c3ccccc3)c3ccccc3)c(C)c12
  x	i	-0.7%
> COc1cccc(NC(=O)COc2ccc(S(=O)(=O)NC(C)C)cc2)c1
  x	i	3.7%
> O=C(O)C1CC(=O)N(C2CCCCCC2)C1 (stereo unspecified)
  -0.0017	i	0.9%
> COc1ccc(-c2nnn(CC(=O)N(CC(=O)NCCC(C)C)c3ccccc3)n2)cc1OC
  -0.3	i	-3.2%
> Cc1nnc(SCC(=O)c2ccc(S(=O)(=O)N3CCOCC3)cc2)n1-c1ccccc1
  -0.37	i	0.4%
> CCOC(=O)N1CCN(C(=O)CN(Cc2ccccc2)S(C)(=O)=O)CC1
  -0.48	i	1.6%
> COc1ccc(-c2cn3c(n2)CCC3)cc1
  0.05	i	-7.7%
> COc1cc(OC)cc(C(=O)NCc2n[nH]c(=S)n2-c2ccccc2)c1
  1.5	i	0.0%
> CCOC(=O)C1=C(CSc2nc(C)cc(C)c2C#N)OC(N)=C(C#N)C1c1ccccc1 (stereo unspecified)
  x	i	0.5%
> COc1ccc(N2CCN(C(=O)c3ccc(NS(=O)(=O)c4ccccc4)cc3)CC2)cc1
  -0.75	i	3.5%
> CCc1cc(C(=O)N2CCOCC2)c(NC2=NS(=O)(=O)c3ccccc32)s1
  -1.1	i	4.1%
> O=C(CCn1c(=O)c2ccccc2n(Cc2cccnc2)c1=O)NCc1ccc2c(c1)OCO2
  1	i	-0.4%
> Cc1noc(C)c1COC(=O)C1(c2cccc(F)c2)CCCC1
  1.7	i	3.0%
> CCOC(=O)c1sc2nc(C)n(CC(=O)NCC3CCCO3)c(=O)c2c1C (stereo unspecified)
  -0.99	i	5.7%
> O=C1CCCC2=C1C(c1ccncc1)c1c(nc(SCc3ccccc3Cl)[nH]c1=O)N2 (stereo unspecified)
  0.38	i	6.9%
> Cc1cc(N2CCOCC2)c2c(N)cc(C)c(C)c2n1
  x	i	2.2%
> CC(O)CN(Cc1cccc(Cl)c1)CC(C)O (stereo unspecified)
  -0.43	i	4.9%
